Mtb hypoxia inh = reduces hypoxia-regulated biosensor signal in M. tuberculosis; M. tuberculosis hypoxia-regulated fluorescent reporter, fluorescence; fluorescence inhibition, % (concentration not given with the values); actives 0.1% (n = 300,000); AID 1159583;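 active means 35 to 45% if threefold the growth effect, above 45% if 1.5-fold the growth effect; inactive means the rest, general growth blockers included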;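 further: wells of about 50 µL received 100 nL stock; 0% = vehicle wells and 100% = reference inhibitor wells; whole bacteria with a GFP reporter of the hypoxia response; strong numbers were not always called active; many hits fall short of the cut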
RN4220 kill = S. aureus RN4220 growth inhibition; OD600, 16 h; inhibition, % (no concentration beside the values); actives 0.33% (n = 330,000);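 active means z-score of -3 or lower and OD600 up to 0.18 on both plates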;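 further: plate controls were untreated cells for no effect and reference antibiotic for full effect; stock transfer was 100 nL into about 80 µL; one replicate is shown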
Autofluor counter = counter-screen for toxin protease inhibitors: compound fluorescence; compound autofluorescence counterscreen, microsphere flow cytometry; active compounds read high; actives 3.1% (n = 360,000); AID 624483; fluorescence intensity (no concentration beside the values);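 active means at least 3 SD above the mean of all compounds, about 16000 in these data; inconclusive means too few beads counted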;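 further: 100 nL of 1 mM stock went into each well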
BJeLR viability = BJeLR cell viability loss; BJeLR (HRASV12) viability, CellTiter-Glo ATP luminescence, 48 h; reference of the scale not given here; inhibition, % (test concentration not listed); actives 0.17% (n = 300,000); AID 1554;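 active means replicate mean above 50%; inconclusive means above 50% but judged a plate artefact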;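 further: 50 nL library stock added to about 25 µL; numbers are from one replicate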
PrP 5UTR inh = suppresses PrP 5' UTR mRNA reporter expression. inhibition, % (test concentration not listed). actives 0.35% (n = 340,000). cell-based PrP 5' UTR mRNA reporter, plate reader. AID 488862;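 active means every replicate at 50% or more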;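 further: 0 = median of the neutral control wells; tested in H4 reporter cells; numbers are from one replicate; inactives centre near -14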
Sa ugtP lethal = compounds lethal to S. aureus RN4220 ugtP deletion mutant; OD600 growth, 16 h; some inactives read as strong as hits; growth inhibition, % (test concentration not listed); actives 0.54% (n = 330,000);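 active means z-score under -3 and OD600 up to 0.15 on both plates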;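 further: plate controls were untreated wells for no effect and antibiotic for full effect; wells of about 80 µL received 100 nL stock; the first replicate is given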
Mtb hypoxia inh growth = recorded beside Mtb hypoxia inh, whose call it bears; growth inhibition, %; measured here: M. tuberculosis growth (absorbance);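 0% = vehicle and 100% = reference antibiotic; read after six days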
Active calls of the source: *; u = inconclusive; x = not tested or not shown; & = joins results of further samples. This is a random part of the collection. Share with any hit: about 4%.

Molecule,Mtb hypoxia inh,Mtb hypoxia inh growth,RN4220 kill,Autofluor counter,BJeLR viability,PrP 5UTR inh,Sa ugtP lethal
COc1cc2cnncc2cc1OC,4,-4,2.5,5467,6,-50,11
CS(=O)(=O)c1ccc(Cl)c(NC(=O)CSc2nc3ccccc3c(=O)n2Cc2ccco2)c1,-3,-1,12,4798,4,6,8
Cc1ccc(S(=O)(=O)Nc2cnn(-c3ccccc3)c(=O)c2Cl)cc1,6,10,3.4,4198,-3,-12,-2
Cc1cccc(NS(=O)(=O)c2ccc(C3CCCCC3)cc2)n1,-1,3,1.0,22937*,9,-29,-8
Cn1c(CSc2ccccc2)c(C#N)c2ccccc21,4,11,4.6,11749,-1,-28,-5
CC(C)N(C(C)C)S(=O)(=O)c1ccc(N2CCc3ccccc3C2)nc1,x,x,x,4255,-4,-52,x
CN1CCN(NC(=O)c2ccc(Br)c(S(=O)(=O)N3CCOCC3)c2)CC1,3,11,2.8,2437,-7,-8,1
Cc1ccc(N=Cc2c(O)n(-c3cc(Cl)ccc3N3CCOCC3)c(=O)c3ccccc23)cc1C,x,x,-5.6,2690,-5,-21,0
Cc1cc(C(=O)Nc2ccc(Br)cc2)cs1,8,-1,0.5,u,-2,-95,1
CC(=O)C1(O)C(C)CC2C3CC(F)C4(O)CC(O)CCC4(C)C3CCC21C (configuration not stated),8,15,4.4,3710,x,-18,1
CC(C)Cn1cc(C(=O)NCCCOC(C)C)c2c3ccccc3n(C)c2c1=O,-3,3,-6.3,3884,-8,-24,-9
Cc1ccc(NC(=O)CN2CCOCC2)c(Br)c1,9,1,4.6,3778,0,-23,7

Further entries.
Molecule,Mtb hypoxia inh,Mtb hypoxia inh growth,RN4220 kill,Autofluor counter,BJeLR viability,PrP 5UTR inh,Sa ugtP lethal
COc1ccc(C(OCC(O)CN2CCC(O)CC2)c2ccc(OC)cc2)cc1 (configuration not stated),8,1,4.1,4215,8,-25,4
CCOC(=O)c1ccc(S(=O)(=O)N2CCC(C(=O)NCc3ccccc3OC)CC2)cc1,6,2,0.5,x,x,-3,4
COc1ccc(C(=O)NC(C)C2CC3CCC2C3)c(OC)c1 (configuration not stated),x,x,x,5159,2,-19,x
O=C(C1CC1)N1CCc2cc(Br)c(S(=O)(=O)N3CCCCCC3)cc21,1,-6,7.2,3921,x,-8,-11
CC(=O)N1CCC(=O)Nc2ccc([N+](=O)[O-])cc21,0,6,2.2,4419,4,-11,4
Cc1c(NC(=O)COC(=O)c2c3c(nc4ccccc24)CCCC3)c(=O)n(-c2ccccc2)n1C,0,4,-0.2,2145,-17,-64,-7
Cc1ccc(C(C)C)c(OC(=O)/C=C/c2ccccc2)c1,-8,-2,-1.8,11488,12,1,79
Cc1c(C=NNC(=O)c2ccc([N+](=O)[O-])cc2)cnn1C,1,0,4.1,x,x,x,0
O=c1[nH]c2ccc(Cl)cc2c(-c2ccccc2)c1CN1CCOCC1,3,-2,2.2,4111,x,-4,-7
Fc1ccc(CN2CCCCCCC2)c(F)c1,2,3,1.8,9428,x,-19,-5
Cc1cc(C)n(-c2ccc(OCC(=O)O)nn2)n1,-9,-4,-4.8,23964*,-9,-20,-8
CN(C)c1cc(Nc2ccc(O)cc2)c([N+](=O)[O-])c2nonc12,11,18,5.9,4355,-14,-3,11

Other results follow.
Molecule,Mtb hypoxia inh,Mtb hypoxia inh growth,RN4220 kill,Autofluor counter,BJeLR viability,PrP 5UTR inh,Sa ugtP lethal
COC(=O)c1sccc1NC(=O)c1cc(C)on1,2,-4,6.0,17750*,0,-21,9
O=C1CC(NS(=O)(=O)c2ccc(F)cc2)CN1c1ccc2c(c1)OCCO2 (configuration not stated),6,1,-0.8,x,2,2,4
C=CCS/C(N)=N\N=C\c1c(O)ccc2ccccc12,x,x,x,4262,-2,-141,x
COc1ccc(OCCOC(=O)c2cccs2)cc1,1,6,2.2,9211,-4,-75,4
O=C(CN1CCC(NC(=O)c2cccc(F)c2)CC1)NCc1cccs1,-7,2,3.3,2097,-7,10,6
CCOC(=O)c1c(NC(=O)C(C)OC(=O)c2ccc(NC(=O)CC#N)cc2)sc2c1CCCC2 (configuration not stated),-5,0,-9.4,u,2,-7,-8
CN(C)c1ccc(P(=O)(OCc2ccccc2)C(O)c2ccccc2F)cc1 (configuration not stated),12,4,6.0,6155,6,-27,6
CCCCCN(C(=O)CCC(=O)OCc1ccc(C(C)(C)C)cc1)c1c(N)n(CCCC)c(=O)[nH]c1=O,-4,1,4.1,5657,12,6,-2
COC(=O)c1cc(C(=O)Cc2ccccc2)c[nH]1,20,12,3.3,x,0,x,4
CC(Oc1ccc(F)cc1)C(=O)N1CCN(c2ncccn2)CC1 (configuration not stated),4,-4,-1.6,5277,-6,-8,1
Nc1ncnc2c1ncn2[C@@H]1O[C@H](CN=C2NS(=O)(=O)c3ccccc32)[C@@H](O)[C@H]1O,-3,-4,1.9,3369,x,-23,-4
C/C(=N\OCC(=O)OCC(=O)N(Cc1ccccc1)C(C)(C)C)c1ccc2c(c1)OCO2,x,x,x,u,-4,-5,x

More entries follow.
Molecule,Mtb hypoxia inh,Mtb hypoxia inh growth,RN4220 kill,Autofluor counter,BJeLR viability,PrP 5UTR inh,Sa ugtP lethal
CC(C)c1cc(C(=O)Nc2cc(Br)ccc2O)no1,1,7,5.0,4099,-6,-49,-15
COc1ccc(CNc2nc(-c3cccnc3)nn2S(C)(=O)=O)cc1,11,9,7.6,4829,-7,-19,18
CCOC(=O)c1ccccc1NC(=O)COC(=O)CC1CCCCC1,3,5,1.7,4719,7,-11,14
COC(=O)c1c(N)c2ccccc2[nH]c1=O,x,x,0.4,3105,3,-1,5
O=C1CC(NC2CCN(C(=O)c3cccc(F)c3)CC2)C(=O)N1 (configuration not stated),9,0,1.8,3589,-16,-13,4
Nc1c(N(CCCO)C(=O)C2CCCCC2)c(=O)[nH]c(=O)n1Cc1ccccc1,-3,3,5.4,3985,x,-18,6
CCOc1c(C(N)=O)c(-c2ccccc2)c2c(=O)[nH]c3ccccc3n12,x,x,-13,2282,4,-7,-2
CN(c1ccc(C(=O)NC2CCCC2)cc1)S(=O)(=O)c1ccc(Cl)cc1,4,5,5.4,4492,3,0,-6
Cc1c(C(=O)O)cccc1-c1ccc(/C=C2\SC(=O)NC2=O)o1,1,-8,4.1,3403,-4,-22,15
CN(C)c1cc[nH]c(=O)c1C#N,5,3,5.0,3264,7,-20,9
CC(C)OC(=O)c1cn(-c2ccccc2)nc1-c1ccco1,6,11,9.0,3371,-4,-6,-4
O=C(O)C1C2C=CC(O2)C1C(=O)Nc1ccc(S(=O)(=O)N2CCc3ccccc32)cc1 (configuration not stated),-4,0,0.3,10413,15,-23,2

Four compounds already listed, arranged by molecular weight, ascending:
Molecule,Mtb hypoxia inh,Mtb hypoxia inh growth,RN4220 kill,Autofluor counter,BJeLR viability,PrP 5UTR inh,Sa ugtP lethal
COC(=O)c1c(N)c2ccccc2[nH]c1=O,x,x,0.4,3105,3,-1,5
CCOc1c(C(N)=O)c(-c2ccccc2)c2c(=O)[nH]c3ccccc3n12,x,x,-13,2282,4,-7,-2
CN(c1ccc(C(=O)NC2CCCC2)cc1)S(=O)(=O)c1ccc(Cl)cc1,4,5,5.4,4492,3,0,-6
O=C(O)C1C2C=CC(O2)C1C(=O)Nc1ccc(S(=O)(=O)N2CCc3ccccc32)cc1 (configuration not stated),-4,0,0.3,10413,15,-23,2

Additional results follow.
Molecule,Mtb hypoxia inh,Mtb hypoxia inh growth,RN4220 kill,Autofluor counter,BJeLR viability,PrP 5UTR inh,Sa ugtP lethal
COC(=O)Cn1c2c(c3cc(C)ccc31)CCCC2,3,2,2.7,3954,10,-13,7
COC(=O)NC1CSCC1OC(=O)CN1C(=O)c2ccccc2C1=O (configuration not stated),7,5,5.8,20984*,-1,-24,-1
O=C(O)c1ccc(CSc2ncn[nH]2)cc1,1,5,5.4,13184,-2,-13,2
COc1cc(C=NNC(=O)C2COc3ccccc3O2)ccc1O (configuration not stated),-3,-9,1.5,x,x,x,9
O=C(CCc1nnc2ccc(N3CCC4(CC3)OCCO4)nn12)Nc1ccc(F)cc1,5,7,1.6,5898,-2,7,4
O=C(Cn1cnc2c(nnn2Cc2ccc(Cl)cc2)c1=O)OCc1ccccc1,3,2,0.7,12573,-3,-11,5
CC1(C)C2(C#N)C(N)=NC3(OCCO3)C12C#N (configuration not stated),x,x,2.6,2878,0,9,6
COc1ccc(N(CC(=O)Nc2ccc3c(c2)OCO3)S(C)(=O)=O)c(OC)c1,5,6,0.0,7019,8,9,-3
CCS(=O)(=O)c1ccc(O)c(NC(=O)Nc2ccccc2)c1,3,-2,0.6,6163,3,-32,6
CN1C(=O)CC(N2CCN(C(=O)c3ccccc3)CC2)C1=O (configuration not stated),-5,-6,-9.0,2264,-8,-24,-2
CN1CCN(C2CC(=O)N(c3ccc4c(c3)OCCO4)C2=O)CC1 (configuration not stated),-2,-3,0.5,2802,8,-32,-1
COc1ccc(C)cc1NC(=O)CSc1nc2ccccc2nc1N1CCCC1,-1,0,0.0,5429,-2,-35,2

(further entries)
Molecule,Mtb hypoxia inh,Mtb hypoxia inh growth,RN4220 kill,Autofluor counter,BJeLR viability,PrP 5UTR inh,Sa ugtP lethal
OCC1(CCOc2ccccc2)CCN(Cc2ccc3cccc(F)c3n2)CC1,8,6,1.7,3908,3,-7,2
O=c1c2ccccc2nc(-c2ccccc2)n1Cc1ccc(Cl)cc1,7,10,8.1,6228,-11,-1,31
CC(CN1CCN(C)CC1)OC(=O)c1cccc(Cl)c1 (configuration not stated),15,8,1.8,3990,-5,-13,0
CCC(C)(NC(=O)c1ccccn1)C(=O)NC1CCCCC1 (configuration not stated),x,x,-0.2,2778,-15,-13,5
COc1ccc(-c2csc(C(C#N)=C(O)CSc3nccn3C)n2)cc1OC,17&8,8&2,2.6&0.0,3037,x,2,-3&-6
COc1ccc(OC)c(CNC(=O)c2cc(=O)[nH]c3ccc(S(=O)(=O)N4CCCC4)cc23)c1,8,13,-2.7,x,2,x,8
O=C(c1ccccn1)N1CCN(S(=O)(=O)c2ccc(F)cc2)CC1,-7,9,8.1,3209,6,-11,7
CSCCC(NC(=O)C1CCC(C)CC1)C(=O)Nc1ccc(NC(C)=O)cc1 (configuration not stated),15,10,3.5,3845,-8,-22,7
CN1c2ccccc2C(C)(C)C12C=Nc1c(ccc3ccccc13)O2 (configuration not stated),x,x,-13,2761,3,-25,45
Cc1nc(C2CCCCC2)c(-c2ccccc2)c(N2CCOC2=O)c1C,9,7,2.6,3641,12,-11,4
CCn1c(SCC(=O)NC(C)(C)C)nnc1-c1ccccn1,13,7,5.5,2547,14,-1,0
COc1cc(C2C(C#N)=C(N)Oc3c2ccc2ccccc32)ccc1OCC(=O)Nc1ccc(C)cc1 (configuration not stated),5,-1,4.6,2410,2,2,-4

Other entries follow.
Molecule,Mtb hypoxia inh,Mtb hypoxia inh growth,RN4220 kill,Autofluor counter,BJeLR viability,PrP 5UTR inh,Sa ugtP lethal
COc1ccc(NC(=O)c2ccc3c(c2)OCCO3)cc1OC,0,-4,3.3,4788,1,-46,16
Cc1ccc(S(=O)(=O)N2CCC(C(=O)NCCN3CCOCC3)CC2)cc1C,-6,0,1.8,5286,13,-3,2
COc1ccc(CN2C(=O)[C@@H]3Cc4c([nH]c5ccccc45)C(C)(C)N3C2=O)cc1,-4,-6,-0.6,3657,6,3,1
COc1ccc(C2SCC(=O)Nc3c2c(C)nn3C2CCOC(C)(C)C2)cc1 (configuration not stated),-5,0,3.3,4281,-7,-7,5
NC(=O)NC(c1ccccc1)c1cccc2ccccc12 (configuration not stated),13,8,-6.2,11052,2,-13,17
COc1cc2c(cc1OC)C(C1(O)CCCCC1)NCC2 (configuration not stated),-3,-6,2.8,2768,-6,-38,4
C/C=C/c1ccc(OCC(=O)Nc2ccncc2)c(OC)c1,5,-1,13,4067,-3,-22,-1
COc1ccc(C)cc1NC(=O)c1ccc2c(c1)C(=O)N(Cc1ccncc1)C2=O,16,38,0.8,3441,x,-17,5
Cc1ccc(S(=O)(=O)Nc2ccc3c(c2)n(C)c(=O)n3C)c(C)c1,-6,2,-0.4,4853,-6,-13,-2
O=C(O)CCCC(=O)N1CCN(c2ncccn2)CC1,18,1,1.9,x,-30,x,5
CN(C(=O)Oc1ccc(C(C)(C)C)cc1)c1ccccc1,0,3,-1.9,4686,5,-18,46
CCCN(CC(=O)Nc1ccccc1OC)C(=O)c1cccc(S(=O)(=O)Nc2ccc(OC)cc2)c1,6,3,-0.7,u,1,1,-2
CCOCCCNC(=O)Cn1cnc2sc(C)c(S(=O)(=O)N3CCN(c4ncccn4)CC3)c2c1=O,2,7,1.1,3475,-4,-14,4

Screening data: PubChem, several laboratories
